CBX7 AlphaScr – CBX7 chromodomain binding inhibitors, primary screen, biochemical, AlphaScreen; AlphaScreen His6-CBX7 / biotin-H3K27me3 peptide binding; stronger effect = lower value; normalised signal (fraction of DMSO) (test concentration not listed); 1.1% of 66,000 active; AID 1224903, 2016; in the data active = normalised signal below about 0.5;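 also: 100 nL library stock added to about 20 µL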
Target sequence (O95931 whole entry, looked up): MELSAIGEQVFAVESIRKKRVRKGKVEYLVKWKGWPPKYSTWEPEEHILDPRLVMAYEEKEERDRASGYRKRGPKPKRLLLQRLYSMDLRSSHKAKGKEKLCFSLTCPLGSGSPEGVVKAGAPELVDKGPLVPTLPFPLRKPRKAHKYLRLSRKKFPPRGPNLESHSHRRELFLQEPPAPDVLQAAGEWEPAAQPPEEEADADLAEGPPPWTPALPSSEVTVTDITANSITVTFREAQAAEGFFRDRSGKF
CBX7 AlphaScr z-score – further read-out of CBX7 AlphaScr, marked with its call; z-score; measured here: z-score of CBX7 signal; some inactives read as strong as hits; reference of the scale not given here;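 same signal on another scale; lower means less binding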
Active calls of the source: *. A portion of the library. The share of hits here may be higher or lower than overall.

Values in the order – CBX7 AlphaScr, CBX7 AlphaScr z-score
CCCCOc1ccc(N2C(=O)CC(N3CCSCC3)C2=O)cc1 (configuration not stated)
→ 1.1, 1.2
Cc1ccc(S(=O)(=O)c2cn(CC(=O)Nc3ccc(F)cc3)c3ccccc3c2=O)cc1
→ 0.92, -1.2
CCC(CC)C(=O)N1CC(=O)Nc2ccc(Cl)cc2C1c1ccccc1 (configuration not stated)
→ 0.95, -1.2
COc1ccc(NC(=O)NCCCN2CCc3ccccc3C2)cc1
→ 1.3, 2.7
COc1ccccc1N1CCN(C(c2cccs2)C(C)NC(=O)C(=O)N2CCCCC2)CC1 (configuration not stated)
→ 0.98, -0.41
CC(=O)Nc1ccccc1C(=O)N1CCN(C)CC1
→ 1.1, 2.1
CCCCNC(=O)c1ccc2c(c1)ncn2C1CCCC1
→ 0.76, -2.6
CC(C)(C)c1ccc(C(=O)Nc2ccc3oc(-c4cccnc4)nc3c2)cc1
→ 1.1, 1.1
Cc1ccccc1NC1c2ccccc2C(=O)N1c1ccccn1 (configuration not stated)
→ 0.98, -0.76
Cc1nc(SCC(=O)Nc2ccc(Br)cc2)c(C#N)c2c1CCCC2
→ 1.1, 1.2
O=C(Cc1ccccc1)NCCCc1nc2ccccc2[nH]1
→ 1, 0.47
Cc1ccc(Cc2c(C)nc3c(C(=O)NCCc4ccccc4)cnn3c2C)cc1
→ 0.78, -5.9
O=C1CC(NCCc2ccccc2)C(=O)N1c1ccc(Br)cc1 (configuration not stated)
→ 1.1, 0.33
COc1cc(OC)cc(C(=O)Nc2c3c(nn2-c2ccc(C)cc2C)CSC3)c1
→ 1, 0.18
CCOCCCNC(=O)C1CCN(C(=O)c2cc3sccc3n2C)CC1
→ 0.98, -0.42
CCCCNc1cc(C)nc(NCc2ccccc2)n1
→ 1.3, 3
Cc1ccc(C)c(NC(=O)CCc2nnc3ccc(N4CCOCC4)nn23)c1
→ 0.94, -1.1
C=CCc1ccccc1OCC(O)CN1CCN(c2ccc(OC)cc2)CC1 (configuration not stated)
→ 1.1, 0.99
Cc1cccc(N(C)S(=O)(=O)c2ccc3[nH]cc(C(=O)N(C)Cc4ccccc4)c(=O)c3c2)c1
→ 0.89, -1.4
COCCn1c(SCC(=O)Nc2cc(C)ccc2C)nnc1-c1c[nH]c2ccccc12
→ 1.1, 0.91
Cc1nc2c(C(=O)NCc3ccc4c(c3)OCO4)cnn2c(C)c1Cc1cccc(Cl)c1
→ 0.86, -1.6
COc1ccc(Cl)cc1NC(=O)Cn1c(SCc2ccc(F)cc2)nc2ccncc21
→ 0.96, -0.41
COc1ccc(NC(=O)CCN2CCN(CCO)CC2)cc1
→ 1, 0.88
Cc1cc2cc(CCNC(=O)c3cccc(Br)c3)c(=O)[nH]c2cc1C
→ 1.1, 0.62
CCOC(=O)c1ccc2nc(C)cc(Nc3ccc(OC(C)C)cc3)c2c1
→ 0.98, -0.69
CC(=O)c1ccc(NC(=O)c2nn3c(C(F)(F)F)cc(-c4ccc(C)cc4)nc3c2Cl)cc1
→ 1, 0.17
CCOC(=O)c1nc(Nc2ccc(C)cc2)c2ccccc2n1
→ 0.94, -0.077
COc1ccc(N2CCN(c3ncnc4sc(C(=O)Nc5ccc(F)cc5)c(C)c34)CC2)cc1
→ 0.65, -0.6
Cc1cccc(NS(=O)(=O)c2csc(C(=O)Nc3ccccc3)c2)c1
→ 1, 0.34
COc1ccc(-c2nc(-c3ccccc3)no2)cc1OC
→ 1.2, 1.7

Of the compounds above, four contain an NH in an aromatic ring:
Values in the order – CBX7 AlphaScr, CBX7 AlphaScr z-score
O=C(Cc1ccccc1)NCCCc1nc2ccccc2[nH]1
→ 1, 0.47
Cc1cccc(N(C)S(=O)(=O)c2ccc3[nH]cc(C(=O)N(C)Cc4ccccc4)c(=O)c3c2)c1
→ 0.89, -1.4
COCCn1c(SCC(=O)Nc2cc(C)ccc2C)nnc1-c1c[nH]c2ccccc12
→ 1.1, 0.91
Cc1cc2cc(CCNC(=O)c3cccc(Br)c3)c(=O)[nH]c2cc1C
→ 1.1, 0.62

More compounds follow:
Values in the order – CBX7 AlphaScr, CBX7 AlphaScr z-score
CCCN(CCC)CCCNC(=O)c1cc2c(-c3ccc(OC)c(OC)c3)nn(C)c2s1
→ 0.92, -1
COc1cc(C2Nc3ccccc3C(=O)N2c2ccccc2)cc(OC)c1OC (configuration not stated)
→ 1.2, 3.9
CCC(C)NC(=O)c1cc(-c2ccc(Cl)cc2)on1 (configuration not stated)
→ 1, 0.071
Cc1ccc(C)c(NC(=O)C2=CCN(S(=O)(=O)c3ccccc3)CC2)c1
→ 0.99, -0.15
CCn1c(C(O)c2cccc3ccccc23)nc2ccccc21 (configuration not stated)
→ 0.98, -0.43
O=C(NCCC1=CCCCC1)C1CCCN(S(=O)(=O)c2cccs2)C1 (configuration not stated)
→ 0.98, -0.7
CC1CCCCC1NC(=O)C1CCN(C(=O)c2sccc2-n2cccc2)CC1 (configuration not stated)
→ 1.1, 1.3
O=C(NC1CC1)C1CC(=O)N(CCc2ccccc2)C1 (configuration not stated)
→ 0.99, -0.7
CCN(C(=O)Cn1ncc2c1-c1ccccc1OC2)c1cc(Cl)ccc1OC
→ 0.74, -7.6
Cc1nc2sc(C(c3cccs3)N3CCCCC3)c(O)n2n1 (configuration not stated)
→ 1, 1.2
CCC(C(=O)NC1CCCc2ccccc21)n1ncc2ccccc21 (configuration not stated)
→ 0.94, -1.4
COc1cccc(-c2nc(CS(=O)(=O)CC(=O)NCCC(C)C)c(C)o2)c1
→ 1, 0.25
CS(=O)(=O)c1ccc2nc(NC(=O)c3cc(-c4ccccc4)nc4ccccc34)sc2c1
→ 0.65, -5.9
Cc1ccc(CSc2nc3ccncc3n2CC(=O)N2CCCC2)cc1
→ 0.93, -1
CC(C)OCCCNC(=O)c1ccc2c(c1)ncn2C1CCCC1
→ 1, 0.21
O=C(CSc1nnnn1-c1ccc(F)cc1)NC1CCCCC1
→ 1, 0.16
COc1ccc(-c2nc(CSCC(=O)NCC3CCCO3)c(C)o2)cc1OC (configuration not stated)
→ 1.1, 2.7
Cn1c(SCCCc2ccccc2)nnc1-c1ccncc1
→ 1.1, 0.08
CCCS(=O)(=O)N1CCCC(C(=O)NCc2ccccc2Cl)C1 (configuration not stated)
→ 0.99, -0.25
Cc1ccc(Cn2c(C(=O)NCCc3ccccc3)cc3sccc32)cc1
→ 0.94, -1.7
CCN(C(=O)c1oc2ccc(S(=O)(=O)N3CCCCCC3)cc2c1C)c1ccccc1
→ 0.7, -3.3
CC(C)NC(=O)c1ccc2c(c1)N(Cc1ccc(Cl)cc1)C(=O)c1ccccc1S2
→ 0.97, -0.85
CCOc1cccc(C(=O)Nc2cc(-c3nc4ccccc4o3)ccc2OC)c1
→ 0.95, -0.56
COc1ccc(-c2csc(Nc3cccc(Cl)c3C)n2)cc1OC
→ 0.61, -5.7
Cc1cc(C(=O)NCCCN2CCCCCC2)n(-c2ccccc2)n1
→ 1.5, 7.9
COc1cccc(CNC(=O)c2cc(-c3cccnc3)nc3ccccc23)c1
→ 0.9, -2
O=C(NC1CCCC1)c1c[nH]c2ccc(S(=O)(=O)Nc3ccc(F)cc3F)cc2c1=O
→ 1.1, 0.35
Cc1ccc(-c2nc(S(=O)(=O)c3ccc(F)cc3)c(SCC(N)=O)o2)cc1
→ 0.97, -0.23
O=C1CCc2cc(S(=O)(=O)N3CCC(C(=O)Nc4ccc(Cl)cc4)CC3)ccc2N1
→ 1.1, 2.4
COc1cccc(C(=O)Nc2c(C(=O)Nc3ccccc3F)oc3ccccc23)c1
→ 1.1, 2.9
COC(=O)c1c(NC(=O)c2cc(Cl)ccc2OC)sc2c1CCC(C(C)(C)C)C2 (configuration not stated)
→ 1, 0.84
C#CCOc1ccc2c(c1)c(C(=O)OCC)c(C)n2-c1ccc(OCC)cc1
→ 1, 0.063
CC(C)CCNS(=O)(=O)c1ccc2c(c1)CCN2C(=O)C1CCC1
→ 0.91, -3
CN(C)CCCNc1oc(-c2ccc(F)cc2)nc1C#N
→ 1.2, 2.7
CCOc1ccc(CCNC(=O)C(C)N2C(=O)CC(C)(C)Sc3ccccc32)cc1 (configuration not stated)
→ 1, 0.76
CC1CCCC(NC(=O)CCNS(=O)(=O)c2ccc3c(c2)CCC(=O)N3)C1C (configuration not stated)
→ 1.1, 2.2
CCC(C(=O)Nc1ccccc1OC)n1c(C(=O)OC)cc2sc(Cl)cc21 (configuration not stated)
→ 1.2, 4.5
CCn1cc(CN(C)C(=O)c2cc(-c3ccccc3)nc3ccccc23)c(C)n1
→ 1.1, 1.7
Cc1ccc(-c2nc3sccn3c2Nc2ccc3c(c2)OCCO3)cc1
→ 0.8, -7.5
CCCNC(=O)c1ccc2c(c1)ncn2-c1ccc(OC)cc1
→ 1.2, 2
COc1ccc(-c2nc(C#N)c(NCc3ccccc3)o2)cc1
→ 0.89, -1.2
CCN1CCN(Cc2c(C(=O)OC(C)C)nnn2-c2nonc2N)CC1
→ 1.1, 0.46
CC(C)(C)c1ccc(-c2cc(C(=O)Nc3ccc(S(N)(=O)=O)cc3)c3ccccc3n2)cc1
→ 0.83, -5
COc1ccccc1Nc1cc(C(=O)NCCCN2CCCC2)c2ccccc2n1
→ 1.1, 3
COc1ccc(Nc2ncccc2C(=O)Nc2cccc(C(F)(F)F)c2)cc1
→ 0.72, -5.4
CC(=O)N1CCc2cc(S(=O)(=O)NC(CC(C)C)C(=O)NCCc3ccc(C)cc3)ccc21 (configuration not stated)
→ 1.1, 1.2
COc1cccc(C(=O)NCCc2cc3ccc(C)c(C)c3[nH]c2=O)c1
→ 1.1, 0.43
CCCCOc1ccc(N2C(=O)CC(N3CCN(c4ccccn4)CC3)C2=O)cc1 (configuration not stated)
→ 0.98, -0.56
CCCCOC(=O)c1ccc(-c2n[nH]c(=O)c3ccccc23)cc1
→ 1, 0.34
Cc1ccccc1Cn1cc(NC(=O)c2cc(-c3ccc(F)cc3)on2)cn1
→ 1, 0.9

Carrying on:
Values in the order – CBX7 AlphaScr, CBX7 AlphaScr z-score
COc1cccc(CN2C(=O)CN(C3CCCCC3)C(=O)C2c2ccc(OC(C)C)c(OC)c2)c1 (configuration not stated)
→ 1.1, 1.2
CCCc1cc(C(=O)Nc2c(F)cc(F)cc2Br)no1
→ 1.1, 0.075
O=C(Nc1ccc(OC(F)(F)F)cc1)C1CCCN(S(=O)(=O)c2cccnc2)C1 (configuration not stated)
→ 1, 0.024
Cc1cc2c(cc(C(=O)NCc3cccnc3)n2Cc2ccc(Cl)cc2)o1
→ 0.8, -5.6
c1ccc(CC2CCN(c3nc4cccnc4s3)CC2)cc1
→ 1.1, 2.8
CCC1Oc2ccccc2N(CC(=O)NCCCN2CCN(c3ccc(OC)cc3)CC2)C1=O (configuration not stated)
→ 0.96, -1.3
Cc1ccc(-n2nc3c(c2NC(=O)c2c(F)cccc2F)CSC3)cc1
→ 1, 0.014
O=C(c1ccc2ccccc2n1)N(Cc1ccccc1)C1(C(=O)Nc2ccccc2)CCCCC1
→ 0.85, -1.8
Cc1ccc2c(c1)N(CCC(=O)NCCCOC(C)C)C(=O)C(C)O2 (configuration not stated)
→ 1, 0.58
O=c1c2ccccc2nc(SCc2ccccc2Cl)n1Cc1ccc2c(c1)OCO2
→ 1.2, 1.4
Cc1oc(-c2ccc(Cl)cc2)nc1CSCC(=O)N1CCOCC1
→ 1.1, 0.88
Cc1onc(-c2ccccc2Cl)c1C(=O)NC(C)Cc1ccccc1 (configuration not stated)
→ 0.97, -0.036
CCC(=O)N1CCc2cc(S(=O)(=O)NCCC(=O)NC(C)(C)C)ccc21
→ 0.98, -0.57
COc1ccc(OCC(=O)Nc2cc(-c3nn4c(C)nnc4s3)ccc2C)cc1
→ 1.1, 1.6
Cc1ccc(-c2noc(CN(C(=O)c3ccc(C(C)(C)C)cc3)C(C)C)n2)cc1
→ 0.93, -0.66
COc1ccc(-c2csc(Nc3ccccc3OC)n2)cc1Br
→ 0.81, -2.5
O=C1Nc2ccccc2OC1CC(=O)N1CCc2ccccc21 (configuration not stated)
→ 1, 0.24
O=C(Nc1ccc(F)cc1F)N1CCN(c2ccccn2)CC1
→ 0.89, -1.3
CCCSc1nnc2c(n1)OC(c1ccncc1)Nc1ccccc1-2 (configuration not stated)
→ 0.97, -0.13
Cc1ccc(C(O)c2nc3ccccc3n2C)cc1 (configuration not stated)
→ 1, 0.16
COc1ccc(CCNC(=O)C2CC(=O)N(c3ccc(OCc4ccccc4Cl)cc3)C2)cc1OC (configuration not stated)
→ 0.98, -0.19
O=C(CCn1c(=O)[nH]c2ccccc2c1=O)N1CCN(c2ccc(F)cc2)CC1
→ 0.98, -0.066
O=C(CN1C(=O)COc2ccccc21)NCCc1ccc(Cl)cc1
→ 0.99, -0.46
Cc1cc(NC(=O)CCN2CCN(c3ccccc3C)CC2)no1
→ 0.95, -0.81
O=C(C1CCCN1S(=O)(=O)c1cccc2cccnc12)N1CCc2ccccc21 (configuration not stated)
→ 0.99, -0.3
O=C(Nc1ccn(Cc2ccc(F)cc2)n1)c1cnccn1
→ 0.96, -1.3
O=C(CS(=O)(=O)c1nc(-c2ccc(Cl)cc2)cn1-c1ccccc1)Nc1ccc(F)cc1F
→ 1, -0.0077
N#Cc1c(-c2ccccc2)nc(N2CCCCC2)[nH]c1=O
→ 1.1, 1.8
Cc1ccc(-c2cc(C(=O)N3CCN(c4ncccn4)CC3)c3ccccc3n2)cc1
→ 0.93, -2
CCN1CCN(C(c2cccs2)C(C)NC(=O)C(=O)N2CCCCC2)CC1 (configuration not stated)
→ 1.2, 1.9
CCc1ccc2nc(N3CCC(C(=O)NCc4cccs4)CC3)sc2c1
→ 1.1, 0.25
O=C(Nc1ccc(C(=O)N2CCCCC2)cc1)Nc1ccc2snnc2c1
→ 1, 0.44
O=C(NC1CC1)C1C2C=CC3(CN(Cc4cccs4)C(=O)C13)O2 (configuration not stated)
→ 0.98, -0.8

Taken from above:
Result for CCN1CCN(C(c2cccs2)C(C)NC(=O)C(=O)N2CCCCC2)CC1 (configuration not stated) under CBX7 AlphaScr: 1.2
Result for O=C(C1CCCN1S(=O)(=O)c1cccc2cccnc12)N1CCc2ccccc21 (configuration not stated) under CBX7 AlphaScr: 0.99

From PubChem
